TRPV1 potentiator: HTS Assay for Compounds that Act as Potentiators of the Vanilloid Receptor 1. Transient receptor potential cation channel subfamily V member 1 (Homo sapiens), Q8NER1. TRPV1-expressing cells, Fluo-8 calcium influx, capsaicin EC20 potentiation; host cell line not named in the record; control for the full effect not named in the record. potentiation, % at 8.33 µM. hit rate 0.02% among 320,000. AID 540277, 2011; active means potentiation above 80%; inconclusive means 30% to 80%; inactive means below 30%; note: 0% is about no effect
Target sequence (Q8NER1 whole entry, looked up): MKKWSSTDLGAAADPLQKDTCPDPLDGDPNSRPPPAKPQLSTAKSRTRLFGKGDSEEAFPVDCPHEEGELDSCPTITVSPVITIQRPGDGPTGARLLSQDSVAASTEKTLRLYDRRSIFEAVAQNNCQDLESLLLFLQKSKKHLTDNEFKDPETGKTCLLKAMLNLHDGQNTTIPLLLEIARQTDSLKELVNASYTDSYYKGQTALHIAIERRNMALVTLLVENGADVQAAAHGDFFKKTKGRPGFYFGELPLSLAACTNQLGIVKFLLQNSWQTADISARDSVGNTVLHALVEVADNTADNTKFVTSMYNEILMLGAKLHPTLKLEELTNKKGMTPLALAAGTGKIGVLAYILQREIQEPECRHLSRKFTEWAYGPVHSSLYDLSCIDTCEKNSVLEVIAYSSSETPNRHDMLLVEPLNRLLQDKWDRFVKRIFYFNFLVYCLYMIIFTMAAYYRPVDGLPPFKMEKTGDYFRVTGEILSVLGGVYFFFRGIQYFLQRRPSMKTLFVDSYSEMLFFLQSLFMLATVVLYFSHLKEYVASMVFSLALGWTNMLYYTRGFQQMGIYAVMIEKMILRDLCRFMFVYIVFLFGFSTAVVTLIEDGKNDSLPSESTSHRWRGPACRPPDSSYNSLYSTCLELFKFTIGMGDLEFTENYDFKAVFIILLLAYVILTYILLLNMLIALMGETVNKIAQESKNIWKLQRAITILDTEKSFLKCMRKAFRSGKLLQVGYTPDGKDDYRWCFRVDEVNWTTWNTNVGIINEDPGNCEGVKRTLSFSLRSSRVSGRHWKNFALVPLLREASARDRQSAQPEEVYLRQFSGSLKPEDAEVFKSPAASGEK
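Cells expressing TRPV1 were dye-loaded with Fluo-8 and read kinetically: 10 s baseline, 3 min after compound (agonist portion), then 2 min after EC20 capsaicin (allosteric enhancer portion). Calcium-bound dye fluorescence at 480/520 nm.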
Sfp inh: qHTS Assay for Inhibitors of Bacillus subtilis Sfp phosphopantetheinyl transferase (PPTase); Biochemical Sfp PPTase activity, qHTS; Potency, µM, for the others: max response, negative = inhibition, actives largely listed as inhibitors; hit rate 3.5% among 310,000; AID 1490, 2009; active = well fitted inhibition curve with a large enough effect; inconclusive = small, poorly fitted or top-dose-only effect, or another doubt; inactive = no such curve, though single readings can be large or run the other way;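 note: the enzyme is Sfp with the accession as filed and its product quenches rhodamine fluorescence; potency is the fitted concentration of half-maximal effect; 0% = enzyme reaction without inhibitor and -100% = no enzyme wells; top concentration of the series not given in the record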
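Buffer: 50 mM Hepes-Na pH 7.6, 10 mM MgCl2, 0.01% Nonidet P-40, 0.01% BSA. Enzyme 15 nM, pre-exposed to compound 15 min; substrates then added and fluorescence change tracked over 30 min.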
TRPML1 ag: qHTS for Agonists of the Human Mucolipin Transient Receptor Potential 1 (TRPML1); Mucolipin-1 (Homo sapiens), Q9GZU1; TRPML1-expressing cells, Ca2+ dye fluorescence, FDSS; host cell line not named in the record; reference of the full effect not given here; activation, % (no concentration beside the values); hit rate 0.12% among 410,000; in the data active = activation above about 50%; inconclusive = about 30% to 50%; inactive = below about 30%; note: 0% is about no effect; the text of the record puts the active cut at 80%
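Agonist activity was taken from a 110 s kinetic Ca2+ dye read on the FDSS after pinning compounds onto TRPML1-DL cells. The cells were seeded at 1,500/well with Tet inducer, incubated about 16 h, then dye-loaded at room temperature.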
Menin-MLL FL inh: qHTS Assay for Inhibitors Targeting the Menin-MLL Interaction in MLL Related Leukemias: Competition With Fluorescein Labeled MLL-derived Peptide; Fluorescence polarization, fluorescein-MLL peptide displacement from menin; FP activity change, % at 61.4 µM; 290,000 tested, under 10 active; AID 1766, 2009; inconclusive = falling polarisation curve, or a change in total fluorescence; inactive = total fluorescence flat and polarisation flat or rising; no compound was filed as active; the % refers to the polarisation; negative = inhibition;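 note: % of control where 0% means no effect; inhibitors lower the polarisation; unlabelled MLL peptide was the positive control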
PINK1 modulator: A Quantitative High throughput Screen to Identify Chemical Modulators of PINK1 Expression; PINK1 immunofluorescence, high-content cytometry, 24 h; Potency, µM (series often up to 76.6 µM), inactives show top-dose activation (PINK1 increase), hits mostly activators; hit rate 0.2% among 410,000; AID 624263, 2012; active = well fitted activation curve with a large enough effect; inconclusive = small, poorly fitted or top-dose-only effect; inactive = flat fitted curve, though single readings scatter; cell line not stated here;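 note: potency is the fitted concentration of half-maximal effect; % of control where 0% means no effect; nearly all actives have a fitted effect of over 65% in size; a mitochondrial uncoupler was the plate control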
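Cells are seeded, rested 12 hours, then given compound at five concentrations or DMSO for 24 hours. After fixation, blocking and antibody staining, PINK1 amount and mitochondrial localization are scored; CCCP serves as control.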
ClpP mod: qHTS Assay for Activators of ClpP; purified B. subtilis ClpP, FRET peptide cleavage, 20 min; Potency, µM (top dose mostly 57.5 µM), without a hit: at the top dose activity change, negative = active; hit rate 1.9% among 340,000; AID 651965, 2013; active = well fitted falling curve with a large enough effect; inconclusive = small, poorly fitted or top-dose-only effect; inactive = no such curve, though single readings can be large or run the other way; note: potency is the fitted concentration of half-maximal effect; the source files actives as falling curves though it sought activators and does not explain the sign; nearly all actives have a fitted effect of over 65% in size; many hits overshoot -100%
Target sequence (P80244 whole entry, looked up): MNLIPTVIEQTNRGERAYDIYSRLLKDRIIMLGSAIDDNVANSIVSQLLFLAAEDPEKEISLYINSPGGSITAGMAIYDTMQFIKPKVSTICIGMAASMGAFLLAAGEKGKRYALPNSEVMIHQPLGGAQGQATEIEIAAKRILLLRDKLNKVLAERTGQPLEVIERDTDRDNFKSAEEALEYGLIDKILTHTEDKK
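FRET quenching reversal measured ClpP activation: 10 microg/mL B. subtilis ClpP at pH 8 with the FRET-FV decapeptide, read at 430 nm after 320 nm excitation. The 20-min minus 0-min signal was scaled between DMSO/no-enzyme wells and ADEP (5.8 microM final).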
TRPML1 inh: qHTS for Inhibitors of the Human Mucolipin Transient Receptor Potential 1 (TRPML1) | activity change, negative = inhibition, % (concentration not given with the values) | Mucolipin-1 (Homo sapiens), Q9GZU1 | hit rate 0.02% among 390,000 | TRPML1-inducible cells, Ca2+ dye fluorescence, FDSS; stronger effect = lower value; inhibition of EC80 agonist-evoked calcium signal; in the data active means activity change below about -50%; inconclusive means about -30% to -50%; inactive means above about -30%;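 note: stimulus is agonist 54-4 at its EC80 concentration; % is set by controls: 0 for no effect and ±100 for the full control effect; compound concentration not given in the record; the text of the record puts the active cut at -80%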
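Calcium fluorescence in TRPML1-DL cells induced overnight with Tet: a 110 s read after compound pin addition, then a 110 s antagonist read after challenge with 54-4 at 4 uM final (EC80).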
* hit, by the source's call; ? = inconclusive; nt = no result given; & = joins results of further samples; [ ] = remark or other dose. Hits appear at their usual frequency. About 4.4% of those tested had a hit in this group.

canonical_smiles	TRPV1 potentiator	Sfp inh	TRPML1 ag	Menin-MLL FL inh	PINK1 modulator	ClpP mod	TRPML1 inh
Cc1ccccc1NC(=S)Nc1cccc2cnccc12	-21	3.2µM*	0.6	-6.7	1.3%	nt	-3
CCn1cc(C(=O)N2CCN(c3ccc(OC)cc3)CC2)c(=O)c2cc(S(=O)(=O)N3CCCCC3)ccc21	2	5%	1.7	1.4	-0.3%	-0.1%	33
COCCN(C(=O)COC(=O)CNC(=O)c1ccc(C)cc1)c1c(N)n(Cc2ccccc2)c(=O)[nH]c1=O	nt	nt	-0.9	nt	1.1%	-0.8%	6
CCCCCCN1C[C@@H](O)[C@H](n2cc(C3CC3)nn2)C[C@@H]1c1ccc(Cl)cc1	nt	nt	0.0	nt	1.4%	3.5%	12
CCN1C(=O)[C@H]2[C@H]3CN=C(SCc4ccc(Cl)cc4)N3[C@@](C)(C(=O)OC)[C@H]2C1=O	nt	nt	2.4	nt	-0.9%	-0.3%	-5
CCN(C(=O)COC(=O)/C=C/c1ccco1)c1c(N)n(Cc2ccccc2)c(=O)[nH]c1=O	-6	nt	0.7	nt	1.4%	-3.7%	1
O=C(CC1Sc2ccccc2NC1=O)OCc1cc(=O)oc2cc(O)ccc12 (stereo not given)	10	-18%	2.8	11	1.6%	?	-8
CC1(C)CC(=O)c2cc(C(=O)Nc3ccc(Br)cc3)c(=O)n(-c3ccc(Cl)cc3)c2C1	nt	nt	0.2	nt	0.3%	-1.8%	1
O=c1c2sc3ccccc3c2n(Cc2cccc(Cl)c2)c(=O)n1Cc1ccccc1	nt	nt	-0.3	nt	2.8%	3.8%	-14
CC(C)CN1CCC(=O)N([C@H](CO)c2ccccc2)CC1	11	23%	-0.6&-0.1	2.2	-0.6%	1.1%&1.2%	-5
CC1=C(C(=O)N(C)C)CC(CC(=O)NC2CCCC2)C(=O)N1CCC1=CCCCC1 (stereo not given)	nt	nt	-0.3	nt	0.5%	0.3%	16
COc1ccc(NC(=O)NS(=O)(=O)c2ccc(C)cc2)cn1	0	11%	2.0	?	0.5%	-0.8%	27
CCc1c(C)nc(SCc2nc(-c3ccccc3C)no2)[nH]c1=O	nt	nt	3.8	nt	-0.6%	-0.7%	-19
CC(=O)Oc1ccc2ccccc2c1C(NC(=O)Cc1ccccc1)c1ccccc1 (stereo not given)	11	1%	2.2	-0.4	-2.0%[38.3 µM]	0.4%	12
Cc1ccc(C(=O)N[C@H](C(=O)Nc2ccc(N3CCOCC3)cc2)C(C)C)cc1	16	nt	0.0	nt	22%	1.0%	0
CCCCNC(=O)CN1CCN(Cc2ccc3cc(OC)ccc3c2)CC1	2	79µM*	1.3	-12	1.0%	-1.9%	0
Cc1cc(C)c2nc(C)cc(Nc3ccc(C(=O)N(C)C)cc3)c2c1	nt	19%	-0.3	0.1	6.3%	-1.8%	2
O=C(Nc1ccccc1)/C(=C/c1ccc(O)cc1)NC(=O)c1ccco1	24	5%	1.0	2.1	2.1%	nt	-14
O=C(NCCCNC(=O)c1ccco1)c1ccc(Cl)cc1	-17	9%	-0.3	-0.4	0.0%	nt	21
Cc1ccc(-n2ncc3c(NCc4ccccn4)ncnc32)c(C)c1	-2	45µM*	0.9	0.6	-1.0%	-18%	1
CC(C)C[C@@H](CN1CCC[C@H]1CN1C(=O)C(=O)NC[C@@H]1Cc1ccc(O)cc1)N1C[C@H](Cc2ccc(O)cc2)N(CCc2ccccc2)C(=O)C1=O	nt	nt	-0.2	nt	1.7%	1.6%	nt
COc1ccc(C(=O)COC(=O)c2sc(C)nc2C)cc1F	nt	nt	-0.6	nt	1.1%	0.9%	5
C1=C(CCNc2ncnc3c2[nH]c2ccccc23)CCCC1	-29	56µM*	-0.3	3.1	?	?	2
CN1C(=O)C(C)(C)c2cc(S(=O)(=O)NCCc3ccc(Cl)cc3)ccc21	6	7%	0.9	-0.5	2.5%	0.9%	4
COc1ccccc1/C=C/C=N/NC(=O)c1ccc(=O)n(C)c1	3	14%	1.8	9.0	3.8%	-24%	-2
CCOc1cc2nc(-c3ccc(OC)c(OC)c3)nc(NCCCN3CCOCC3)c2cc1OC	6	-16%	0.5	2.2	2.7%	-24%	13
N#CCC(=O)Nc1ccc(C(=O)OCC(=O)NC(=O)Cc2ccccc2)cc1	8	nt	0.4	nt	-0.1%	-2.9%	-9
COc1ccc(C)cc1NC(=S)NC12CN3CN(CN(C3)C1)C2	3	8%	nt	3.1	nt	nt	nt
COc1ccc(CC(=O)Nc2ccc(S(=O)(=O)Nc3cc(C)nc(C)n3)cc2)cc1OC	nt	nt	-0.8	nt	1.2%	1.4%	9
Cc1ccc(C(=O)N(CN2CCCC2=O)c2ccc(F)cc2)cc1	-7	-6%	-1.0	-0.9	12%[38.3 µM]	-0.6%	-7
COc1ccc(OC)c(NC(=O)C2CCN(c3cc(-c4ccccc4)nc4ncnn34)CC2)c1	?	?	4.0	3.1	-1.7%[38.3 µM]	-13%	59
Cc1nccn1-c1cc(C(C)(C)C)nc2c(-c3ccccc3)cnn12	2	-1%	2.0	4.8	2.0%	nt	26
CCOC(=O)c1nc2sc3c(c2c(=O)[nH]1)CCCC3	0&7	16%&16%	0.1	0.6&4.8	0.0%	?	5
Nn1c(SCC(=O)N2CCOCC2)nnc1C1CC1	-10	26%	-0.4	0.5	0.1%	0.5%	21
CC(=O)c1ccccc1OC(=O)COc1ccc(Cl)cc1C	13	-5%	-0.6	-1.9	0.9%	nt	-11
CN(C)/C=C/C(=O)c1cnc(-c2ccccc2Cl)s1	4	20%	5.2	2.0	0.5%	-0.8%	6
CC(Oc1cccc(Cl)c1)C(=O)Nc1nc(-c2ccccn2)cs1 (stereo not given)	?	nt	0.5	nt	5.6%	nt	4
Cc1ccc(S(=O)(=O)N2CCC(C)CC2)cc1C(=O)NCc1ccccn1	-2	9%	0.2	-8.8	4.1%	0.4%	8
CC1CN(S(=O)(=O)c2ccc(C(=O)O)cc2)CC(C)O1 (stereo not given)	-14	12%	nt	-0.4	2.5%	1.7%	nt
Cc1nc(C)c(/C(O)=C/c2nc3ccc([N+](=O)[O-])cc3oc2=O)o1	1	30%	nt	?	nt	nt	nt
Cc1ccc(Cl)cc1NC(=O)C(NS(=O)(=O)c1cccc2nsnc12)c1ccccc1 (stereo not given)	nt	nt	0.3	nt	0.3%	-4.0%	-5
C=CCOc1ccccc1/C=N/O	10	20%	2.2	-0.8	-1.6%[38.3 µM]	-16%	0
COc1cccc(CN2CCNC(=O)C2CC(=O)N(C)CC2CCOCC2)c1OC (stereo not given)	-14	4%	-0.4	-6.9	0.2%	-0.8%	-2
CCN(CC)C(=O)C1=C(C)N(Cc2ccc(C(C)(C)C)cc2)C(=O)C(CC(=O)NC2CC2)C1 (stereo not given)	nt	nt	-0.5	nt	0.7%	2.0%	-10
CCOC(=O)N1CCN(C(=O)Cn2nc(C)n3nc(-c4ccccc4)cc3c2=O)CC1	16	11%	-0.7	2.7	0.5%	-2.4%	-8
COc1ccccc1C(=O)NC(=O)COC(=O)c1ccc([N+](=O)[O-])cc1Cl	8	nt	0.6	nt	-1.8%	2.1%	-13
COc1ccc(C)cc1S(=O)(=O)N(CC(N)=O)Cc1ccccc1	-10	5%	0.8	1.6	-2.2%	-2.1%	35
Cc1cc(NC(=O)CCC(=O)NNC(=O)c2ccc(C(C)(C)C)cc2)no1	-3	-1%	-0.2	6.2	0.6%	3.0%	16
CCC(=O)Oc1ccc2c(C)cc(=O)oc2c1C(=O)c1ccccc1	7	28%	-0.9	6.0	0.3%	1.0%	2
CSc1nnc(CNC(=O)c2ccccc2)n1-c1cccc(C)c1	27	18%	-0.9	4.3	0.3%	2.4%	3
Cc1ccc(-n2ncc3c(NNC(=O)c4ccco4)ncnc32)cc1C	5	9%	-0.2	nt	4.6%	-8.8%	10
COCCN1CN(S(=O)(=O)c2ccc(Cl)cc2)c2nc3ccccc3nc21	8	11%	2.0	0.2	-0.2%	-23%	4
COc1ccccc1/C=C/C=N/NC(=O)CCn1nnc2ccccc21	9	6%	4.4	-2.5	1.8%	-9.8%	8
Cc1cc(C)c(S(=O)(=O)N2CCN(C(=O)c3cccs3)CC2)c(C)c1	-12	-9%	-0.6	-2.1	0.0%	nt	-1
Cc1ccc(OCCn2cc(C(=O)c3cccs3)c3ccccc32)cc1	nt	nt	-0.2	nt	-0.2%	-14%	-22
Cc1nc(-c2ccccc2)sc1-c1ccc(SCC(=O)Nc2cccc(C(F)(F)F)c2)nn1	nt	nt	0.5	nt	1.5%	23%	10

Other compounds follow.
canonical_smiles	TRPV1 potentiator	Sfp inh	TRPML1 ag	Menin-MLL FL inh	PINK1 modulator	ClpP mod	TRPML1 inh
COc1ccnc(Nc2cccc(C)c2)c1C#N	17	9%	0.7	-2.4	nt	-2.3%	9
CCCCC(CC)CNC(=O)CCCn1c(=O)[nH]c2ccsc2c1=O (stereo not given)	nt	nt	1.5	nt	-0.5%	-4.5%	9
CC(C)(C)N=C(NS(=O)(=O)c1cccs1)c1ccccc1	0	21%	1.7	1.3	2.2%	-0.8%	0
CN(C)CCN1CCc2ccccc21	-4	-9%	-0.3	-4.6	-3.2%	6.5%	20
CCn1cc(Br)c(C(=O)Nc2sc3c(c2C(N)=O)CCCC3)n1	-5	10%	-0.2	nt	0.9%	-4.3%	5
O=CC(=O)c1ccccc1	1	nt	-0.2	nt	7.1%	0.3%	15
COCCNCC(=O)N1c2ccccc2Sc2ccccc21	-6	-4%	-0.2	0.9	-0.2%	0.2%	56
Cc1ccc(C)c(C(=O)CSc2nc(N)cc(=O)[nH]2)c1	-5	2%	-0.5	-0.4	1.4%	0.7%	6
